# KCNQ2 block: KCNQ2 channel blockers in CHO-K1 cells – cell-based, FluxOR thallium flux, B-score, primary screen (AID 2156); O88943; 20 min; stronger effect = lower value; only compounds with negative scores are shown here; some inactives read as strong as hits; B-score at 10 µM; 310,000 compounds, 1.1% hits;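 active means fluorescence ratio B-score at most minus 3 library SDs, with starting brightness B-score within 2 library SDs, cut at about -5.5 in these data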
# Target sequence (O88943 whole entry, looked up): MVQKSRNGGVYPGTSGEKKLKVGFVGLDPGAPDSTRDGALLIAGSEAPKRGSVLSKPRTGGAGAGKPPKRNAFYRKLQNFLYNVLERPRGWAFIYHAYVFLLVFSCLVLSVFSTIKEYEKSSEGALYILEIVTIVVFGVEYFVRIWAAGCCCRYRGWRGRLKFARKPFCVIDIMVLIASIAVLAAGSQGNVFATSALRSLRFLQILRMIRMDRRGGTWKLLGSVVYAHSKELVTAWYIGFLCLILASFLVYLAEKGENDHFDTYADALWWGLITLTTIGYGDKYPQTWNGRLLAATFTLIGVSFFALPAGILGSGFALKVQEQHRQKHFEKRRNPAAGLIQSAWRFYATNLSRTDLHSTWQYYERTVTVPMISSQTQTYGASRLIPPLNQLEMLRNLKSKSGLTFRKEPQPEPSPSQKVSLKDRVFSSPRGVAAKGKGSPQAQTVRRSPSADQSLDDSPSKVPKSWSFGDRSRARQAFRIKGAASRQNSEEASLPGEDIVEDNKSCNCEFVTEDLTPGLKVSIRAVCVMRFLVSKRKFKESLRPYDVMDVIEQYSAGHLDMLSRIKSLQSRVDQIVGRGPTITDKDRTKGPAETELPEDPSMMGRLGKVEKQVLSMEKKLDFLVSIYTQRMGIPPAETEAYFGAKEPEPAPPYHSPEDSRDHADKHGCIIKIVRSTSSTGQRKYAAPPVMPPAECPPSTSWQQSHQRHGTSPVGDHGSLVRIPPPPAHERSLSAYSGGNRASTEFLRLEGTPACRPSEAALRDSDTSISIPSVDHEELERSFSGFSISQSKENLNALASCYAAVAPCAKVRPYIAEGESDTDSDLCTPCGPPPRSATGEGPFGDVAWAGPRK
# KCNQ2 block baseline: also measured in KCNQ2 block; calls as there; B-score; measured here: initial fluorescence intensity artifact check;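 brightness before thallium and not channel activity; 0 = typical well and far values either way flag optical interference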
# Starred values were filed as active, the others as inactive; i = inactive. These rows are one share of the data; the hit share may differ from the screen's.
1	Nc1nc(SCC(=O)OCc2ccccc2)[nH]c(=O)c1NC(=O)c1ccco1
  KCNQ2 block = i	KCNQ2 block baseline = 1.4

2	FC(F)(F)c1ccc(-n2cn[nH]c2=S)cc1
  KCNQ2 block = i	KCNQ2 block baseline = 0.08

3	CC(=O)Nc1nc2c(C)c(Cl)ccc2s1
  KCNQ2 block = i	KCNQ2 block baseline = 0.01

4	O=C(O)CN1C(=O)/C(=C\c2cccc(OCc3ccc(Cl)cc3Cl)c2)SC1=S
  KCNQ2 block = i	KCNQ2 block baseline = 0.67

5	CC1CC(C)CN(C(=O)Cn2c(=O)oc3cc(S(=O)(=O)N4CCCC4)ccc32)C1 (stereo not given)
  KCNQ2 block = i	KCNQ2 block baseline = -0.53

6	COc1ccc(NC(=O)c2oc3ccccc3c2CSC)cn1
  KCNQ2 block = i	KCNQ2 block baseline = 0.19

7	O=C(Cc1ccc(-n2c(=O)c3ccccc3n(Cc3ccccc3Cl)c2=O)cc1)NCC1CCCO1 (stereo not given)
  KCNQ2 block = i	KCNQ2 block baseline = -0.18

8	CCOC(=O)c1c(NC(=O)c2cccs2)sc2c1CC(C)(C)OC2
  KCNQ2 block = i	KCNQ2 block baseline = -1.8

9	CC(C)Oc1ccc(Oc2ccc(C(F)(F)F)cn2)cc1
  KCNQ2 block = i	KCNQ2 block baseline = -0.51

10	COc1cccc(CNC(=O)c2cc3oc4ccccc4c3n2C)c1OC
  KCNQ2 block = i	KCNQ2 block baseline = -0.08

11	O=C(OCn1nnc2ccccc2c1=O)c1cn(-c2ccccc2)nc1-c1cccnc1
  KCNQ2 block = i	KCNQ2 block baseline = -0.6

12	O=C(c1ccc(N2CCOCC2)cc1)N1CCCC(Nc2ccccc2)C1 (stereo not given)
  KCNQ2 block = i	KCNQ2 block baseline = 0.2

13	CCN(CC(=O)Nc1ccccc1-c1ccccc1)Cc1nc2ccccc2c(=O)[nH]1
  KCNQ2 block = i	KCNQ2 block baseline = -4.2

14	COc1ccc(N2CCN(Cc3cc(=O)oc4cc5c(cc34)CCCC5)CC2)cc1
  KCNQ2 block = i	KCNQ2 block baseline = 1.8

15	Cc1cc(S(=O)(=O)N2CCCC2)ccc1OCC(=O)Nc1ccccc1
  KCNQ2 block = i	KCNQ2 block baseline = 0.39

16	Cc1cc(C)c(C#N)c(Nc2ccccc2Cl)n1
  KCNQ2 block = i	KCNQ2 block baseline = 0.96

17	CC(NC(=O)/C(=C/c1ccc(OC(F)F)cc1)c1ccccc1)c1ccccc1 (stereo not given)
  KCNQ2 block = i	KCNQ2 block baseline = -3.5

18	O=S(=O)(CCN1CCOCC1)c1ccccc1
  KCNQ2 block = i	KCNQ2 block baseline = -2

19	CC(C)c1ccc(NC(=O)Cn2nnc(C(=O)NCc3ccco3)c2N)cc1
  KCNQ2 block = i	KCNQ2 block baseline = 0.07

20	CCCCCCC(=O)N1C/C=C\C(c2ccc(OC)cc2)N(Cc2ccc(F)cc2)C(=O)C1 (stereo not given)
  KCNQ2 block = i	KCNQ2 block baseline = -0.2

21	C=CCNc1oc(-c2cccs2)nc1S(=O)(=O)c1ccccc1
  KCNQ2 block = i	KCNQ2 block baseline = 0.15

22	CCC(=O)Nc1cccc(NC(=S)NC(=O)c2ccccc2)c1
  KCNQ2 block = i	KCNQ2 block baseline = -0.6

23	CC1CCCN(C(=O)CCc2nnc(-c3ccc4c(c3)OCO4)o2)C1 (stereo not given)
  KCNQ2 block = i	KCNQ2 block baseline = -0.59

24	CCOc1ccc(N/C(C)=C/C(=O)c2ccc(C)o2)cc1
  KCNQ2 block = i	KCNQ2 block baseline = -0.13

25	O=[N+]([O-])c1ccc(N2CCN(S(=O)(=O)c3ccccc3)CC2)cc1N1CCc2ccccc2C1
  KCNQ2 block = i	KCNQ2 block baseline = 1

# Pulled one by one from above, 4 records:
15	Cc1cc(S(=O)(=O)N2CCCC2)ccc1OCC(=O)Nc1ccccc1
  KCNQ2 block = i	KCNQ2 block baseline = 0.39

19	CC(C)c1ccc(NC(=O)Cn2nnc(C(=O)NCc3ccco3)c2N)cc1
  KCNQ2 block = i	KCNQ2 block baseline = 0.07

1	Nc1nc(SCC(=O)OCc2ccccc2)[nH]c(=O)c1NC(=O)c1ccco1
  KCNQ2 block = i	KCNQ2 block baseline = 1.4

21	C=CCNc1oc(-c2cccs2)nc1S(=O)(=O)c1ccccc1
  KCNQ2 block = i	KCNQ2 block baseline = 0.15

# Copied from the list:
# KCNQ2 block baseline, entry 8 is entered as -1.8
# KCNQ2 block baseline, entry 3 is entered as 0.01
# KCNQ2 block baseline, entry 14 is entered as 1.8

# Full records, quoted from the list:
# Results for O=C(OCn1nnc2ccccc2c1=O)c1cn(-c2ccccc2)nc1-c1cccnc1 → KCNQ2 block: i; KCNQ2 block baseline: -0.6
# Results for O=C(c1ccc(N2CCOCC2)cc1)N1CCCC(Nc2ccccc2)C1 (stereo not given) → KCNQ2 block: i; KCNQ2 block baseline: 0.2
# Results for FC(F)(F)c1ccc(-n2cn[nH]c2=S)cc1 → KCNQ2 block: i; KCNQ2 block baseline: 0.08

# More entries.
26	O=C(OCC1CC(c2ccccc2)=NO1)c1ccc(Cl)cc1 (stereo not given)
  KCNQ2 block = i	KCNQ2 block baseline = -0.31

27	O=C(Cc1ccc([N+](=O)[O-])cc1)Nc1ccc2c(c1)C(=O)NC2=O
  KCNQ2 block = i	KCNQ2 block baseline = 0.01

28	COc1cc(CNS(=O)(=O)c2ccc3c(c2)CC(C)N3C(C)=O)cc(OC)c1OC (stereo not given)
  KCNQ2 block = i	KCNQ2 block baseline = 0.12

29	CCCCNS(=O)(=O)c1cc(-c2nn(C)c(=O)c3ccccc23)ccc1C
  KCNQ2 block = i	KCNQ2 block baseline = 0.85

30	CN1CCN(c2cc(N3CCN(C(=O)c4ccco4)CC3)c3c4c(onc24)-c2ccccc2C3=O)CC1
  KCNQ2 block = i	KCNQ2 block baseline = 1.5

31	COc1ccc(-n2ncc3c(N4CCN(c5cccc(C)c5C)CC4)ncnc32)cc1
  KCNQ2 block = i	KCNQ2 block baseline = -0.09

32	CC1CCN(Cc2c(C#N)c3ccccc3n2C)CC1
  KCNQ2 block = i	KCNQ2 block baseline = -1.6

33	O=C(c1cc([N+](=O)[O-])ccc1N1CCN(S(=O)(=O)c2ccc(Cl)c(Cl)c2)CC1)N1CCOCC1
  KCNQ2 block = i	KCNQ2 block baseline = -0.87

34	COc1ccccc1N1CCN(S(=O)(=O)c2c(C)ccc3nsnc23)CC1
  KCNQ2 block = i	KCNQ2 block baseline = 0.04

35	COC(=O)C1=CN(c2ccc(OC)cc2)C=C(C(=O)OC)C1c1cc(OC)c(OC)cc1OC
  KCNQ2 block = i	KCNQ2 block baseline = 1.3

36	CCOc1cc(/C=N/NC(=O)CCc2n[nH]c(=O)[nH]c2=O)ccc1O
  KCNQ2 block = i	KCNQ2 block baseline = 1.4

37	COc1ccc(OCC(O)CNC(=O)Nc2ccc(Cl)cc2)cc1 (stereo not given)
  KCNQ2 block = i	KCNQ2 block baseline = -0.66

38	O=C(CSc1nc(=O)n(CCCN2CCOCC2)c2c1CCC2)Nc1ccc([N+](=O)[O-])cc1
  KCNQ2 block = i	KCNQ2 block baseline = 1.2

39	Cc1ccc(Cl)c(NC(=S)N(CCCN2CCOCC2)Cc2ccco2)c1
  KCNQ2 block = i	KCNQ2 block baseline = 0.95

40	COc1ccc(C2C(C#N)=C(N)Oc3c2c(-c2ccccc2)nn3-c2ccccc2)c(OC)c1OC (stereo not given)
  KCNQ2 block = i	KCNQ2 block baseline = 0.55

41	CN(C)c1ccc(C(CNC(=O)c2ccccc2F)c2c[nH]c3ccccc23)cc1 (stereo not given)
  KCNQ2 block = i	KCNQ2 block baseline = -3.2

42	COc1ccc(OC)c(NC(=O)Cn2c(=O)oc3ccccc32)c1
  KCNQ2 block = i	KCNQ2 block baseline = 0.74

43	COc1ccc2cc(C(c3nnnn3C3CCCC3)N3CCc4ccccc4C3)c(=O)[nH]c2c1 (stereo not given)
  KCNQ2 block = i	KCNQ2 block baseline = -1.5

44	COC(=O)c1ccc(C2C(C(=O)Nc3ccc(C)cc3C)=C(C)Nc3ncnn32)cc1 (stereo not given)
  KCNQ2 block = i	KCNQ2 block baseline = 0.45

45	CS(=O)(=O)N1CCC(C(=O)Nc2ccccc2Cl)CC1
  KCNQ2 block = i	KCNQ2 block baseline = -1.1

46	CN(C)CCn1c2c(c(SCC(=O)Nc3ccc4c(c3)OCCO4)nc1=O)CCC2
  KCNQ2 block = i	KCNQ2 block baseline = -0.78

47	COc1ccc(-c2ccc(C#N)c(SCC(=O)Nc3sc4c(c3C#N)CCC4)n2)cc1OC
  KCNQ2 block = i	KCNQ2 block baseline = -1.1

48	COc1c(Br)cc(Br)cc1C(=O)O
  KCNQ2 block = i	KCNQ2 block baseline = 0.59

49	CC1=C/C(=N\NC(=S)NCc2ccccc2)CC1
  KCNQ2 block = i	KCNQ2 block baseline = 0.24

50	COCCNC(=O)C(c1ccc(F)cc1)N(CCOC)C(=O)CCC(=O)Nc1nccs1 (stereo not given)
  KCNQ2 block = i	KCNQ2 block baseline = 0.11

# Next section, overlapping the part above by 5 compounds.
46	CN(C)CCn1c2c(c(SCC(=O)Nc3ccc4c(c3)OCCO4)nc1=O)CCC2
  KCNQ2 block = i	KCNQ2 block baseline = -0.78

47	COc1ccc(-c2ccc(C#N)c(SCC(=O)Nc3sc4c(c3C#N)CCC4)n2)cc1OC
  KCNQ2 block = i	KCNQ2 block baseline = -1.1

48	COc1c(Br)cc(Br)cc1C(=O)O
  KCNQ2 block = i	KCNQ2 block baseline = 0.59

49	CC1=C/C(=N\NC(=S)NCc2ccccc2)CC1
  KCNQ2 block = i	KCNQ2 block baseline = 0.24

50	COCCNC(=O)C(c1ccc(F)cc1)N(CCOC)C(=O)CCC(=O)Nc1nccs1 (stereo not given)
  KCNQ2 block = i	KCNQ2 block baseline = 0.11

51	CCc1ccc(N(C(=O)c2snc(C(N)=O)c2N)C(C(=O)NCCC(C)C)c2c[nH]c3ccccc23)cc1 (stereo not given)
  KCNQ2 block = i	KCNQ2 block baseline = 0.45

52	CN(c1ccccc1C(=O)NC1CC2CCC1C2)S(=O)(=O)c1ccccc1 (stereo not given)
  KCNQ2 block = i	KCNQ2 block baseline = 2.1

53	CC(C)CNS(=O)(=O)c1ccc(CCC(=O)N2CCN(c3ccccc3)CC2)cc1
  KCNQ2 block = i	KCNQ2 block baseline = -0.45

54	CC(C)C(NC(=O)c1ccc(C(C)(C)C)cc1)C(=O)O (stereo not given)
  KCNQ2 block = i	KCNQ2 block baseline = 0.2

55	Cc1nnc(SCC(=O)NC2CCCc3ccccc32)n1-c1ccccc1 (stereo not given)
  KCNQ2 block = i	KCNQ2 block baseline = 0.55

56	O=C(NC1CCCCC1)C1(S(=O)(=O)c2ccc(Cl)cc2)CC1
  KCNQ2 block = i	KCNQ2 block baseline = 0.36

57	COC(=O)c1c(NC(=O)C(C)(C)C)csc1C
  KCNQ2 block = i	KCNQ2 block baseline = -0.93

58	COc1cc(/C=N/NC(=O)c2cc(C)oc2C)ccc1OCc1ccccc1
  KCNQ2 block = i	KCNQ2 block baseline = -0.97

59	COc1ccccc1N1CCN(Cc2cc(=O)c(OCC(=O)Nc3ccccc3)co2)CC1
  KCNQ2 block = i	KCNQ2 block baseline = 0.42

60	C/C(Cc1ccccc1)=N\NC(=O)CNC(=O)c1ccccc1Cl
  KCNQ2 block = i	KCNQ2 block baseline = 0.3

61	Cc1ccc(S(=O)(=O)N2CCCCC2)cc1NC(=O)Cc1c[nH]c2ccccc12
  KCNQ2 block = i	KCNQ2 block baseline = -0.01

62	CN(C)N=Nc1ccc(S(=O)(=O)N2CCSC2C(=O)O)cc1 (stereo not given)
  KCNQ2 block = i	KCNQ2 block baseline = -0.55

63	Cc1coc2cc3oc(=O)c(CCC(=O)N4CCC(C(=O)O)(c5ccccc5)CC4)c(C)c3cc12
  KCNQ2 block = i	KCNQ2 block baseline = -0.16

64	CCC(C(=O)Nc1ccc(S(=O)(=O)N2CCN(C)CC2)cc1)c1ccccc1 (stereo not given)
  KCNQ2 block = i	KCNQ2 block baseline = 1.6

65	COc1ccc(C(=O)n2nc(-c3ccco3)nc2SC)cc1OC
  KCNQ2 block = i	KCNQ2 block baseline = -0.02
